Sfp PPTase inh: qHTS Assay for Inhibitors of Bacillus subtilis Sfp phosphopantetheinyl transferase (PPTase). 4'-phosphopantetheinyl transferase ffp (Bacillus subtilis), Q9F4F7. Biochemical Sfp PPTase activity, qHTS. Potency, µM, for inactives: max response, negative = inhibition, usual class: inhibitors. 3.5% of 310,000 active; active = well fitted inhibition curve with a large enough effect; inconclusive = small, poorly fitted or top-dose-only effect, or another doubt; inactive = no such curve, though single readings can be large or run the other way;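 note: the enzyme is Sfp with the accession as filed and its product quenches rhodamine fluorescence; potency is the fitted concentration of half-maximal effect; 0% = enzyme reaction without inhibitor and -100% = no enzyme wells; top concentration of the series not given in the record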
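Reaction rates are the 30-min fluorescence difference (ex 525, em 598 nm) in wells containing 15 nM Sfp, 5 uM rhodamine-CoA and 12.5 uM BHQ-2-YbbR at pH 7.6 with 10 mM MgCl2.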
TRPV1 potentiator: HTS Assay for Compounds that Act as Potentiators of the Vanilloid Receptor 1; Transient receptor potential cation channel subfamily V member 1 (Homo sapiens), Q8NER1; TRPV1-expressing cells, Fluo-8 calcium influx, capsaicin EC20 potentiation; host cell line not named in the record; control for the full effect not named in the record; potentiation, % at 8.33 µM; 0.02% of 320,000 active; active means potentiation above 80%; inconclusive means 30% to 80%; inactive means below 30%; note: 0% is about no effect
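Cells expressing TRPV1 were dye-loaded with Fluo-8 and read kinetically: 10 s baseline, 3 min after compound (agonist portion), then 2 min after EC20 capsaicin (allosteric enhancer portion). Calcium-bound dye fluorescence at 480/520 nm.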
D2 potentiator: Beta-Arrestin HTS for Positive Allosteric Modulators of the Human D2 Dopamine Receptor: Potentiators. AID 624464, 2012. potentiation, % (test concentration not listed). DiscoveRx D2 beta-arrestin cells, luminescence, 90 min; 100% = 57 uM dopamine signal. 0.23% of 360,000 active. D(2) dopamine receptor (Homo sapiens), P14416; active = potentiation of 50% or more; inconclusive = 30% to 50%; inactive = 30% or less;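 note: compound concentration not given in the record; tested on top of an EC20 dose of dopamine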
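D2 cells co-treated with compound plus 50 nM dopamine (EC20) for 90 min at 37 deg C to detect potentiation. Beta-arrestin recruitment was read as enzyme-fragment luminescence after 1 h at ambient temperature. Full response was set by 57 uM dopamine.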
D2 agonist: Beta-Arrestin HTS for Positive Allosteric Modulators of the Human D2 Dopamine Receptor: Agonists; activation, % (no concentration beside the values); DiscoveRx PathHunter D2 beta-arrestin, luminescence, 90 min; 100% = 57 uM dopamine signal; 0.084% of 360,000 active; D(2) dopamine receptor (Homo sapiens), P14416; AID 624465, 2012; in the data active = activation above about 40%; inconclusive = about 15% to 40%; inactive = below about 15%; note: compound concentration not given in the record; the text of the record calls up to 30% inactive
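Agonist mode: compounds alone added to overnight-plated D2 PathHunter cells for 90 min at 37 C, with 57 uM final dopamine (EC100) defining full response. Beta-arrestin recruitment detected by chemiluminescent reagent, read after 1 h at ambient temperature.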
Six1-Eya2 blk: qHTS Assay for Inhibitors of the Six1/Eya2 Interaction; Homeobox protein SIX1 (Homo sapiens) + Protein phosphatase EYA2 (Homo sapiens), …; AlphaScreen GST-Six1/His-Eya2 binding, biochemical; hits give low values; control for the full effect not named in the record; activity change, % (no concentration beside the values); 0.56% of 360,000 active; AID 651725, 2012; in the data active = activity change below about -65%; inconclusive = about -30% to -65%; inactive = above about -30%; note: % is set by controls: 0 for no effect and ±100 for the full control effect; compound concentration not given in the record
Target sequence (O00167 whole entry, looked up): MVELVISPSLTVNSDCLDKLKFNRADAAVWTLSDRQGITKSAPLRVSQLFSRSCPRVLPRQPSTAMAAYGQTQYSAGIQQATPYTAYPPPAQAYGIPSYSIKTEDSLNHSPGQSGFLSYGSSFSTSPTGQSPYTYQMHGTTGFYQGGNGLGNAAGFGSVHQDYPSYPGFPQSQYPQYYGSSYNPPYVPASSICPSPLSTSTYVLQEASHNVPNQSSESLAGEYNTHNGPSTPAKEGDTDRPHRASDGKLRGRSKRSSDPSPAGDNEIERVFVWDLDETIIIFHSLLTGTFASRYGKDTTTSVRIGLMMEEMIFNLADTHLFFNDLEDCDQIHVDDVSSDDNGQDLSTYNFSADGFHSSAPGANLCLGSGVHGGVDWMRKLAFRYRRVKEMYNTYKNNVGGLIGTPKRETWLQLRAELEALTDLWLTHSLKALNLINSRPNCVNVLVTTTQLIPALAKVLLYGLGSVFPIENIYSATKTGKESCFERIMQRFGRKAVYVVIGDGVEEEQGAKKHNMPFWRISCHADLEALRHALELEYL
Target sequence (Q15475 whole entry, looked up): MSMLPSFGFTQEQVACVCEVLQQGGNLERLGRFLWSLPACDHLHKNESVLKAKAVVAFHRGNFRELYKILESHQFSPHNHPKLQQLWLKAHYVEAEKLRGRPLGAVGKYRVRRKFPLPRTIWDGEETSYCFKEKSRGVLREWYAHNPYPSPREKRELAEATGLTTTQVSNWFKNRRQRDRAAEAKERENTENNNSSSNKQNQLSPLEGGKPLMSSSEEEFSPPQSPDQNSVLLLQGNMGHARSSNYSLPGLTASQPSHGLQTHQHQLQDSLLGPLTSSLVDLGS
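Homogeneous AlphaScreen proximity assay pairing GST-Six1 with His-tagged Eya2 (added as 5X mix: 250 nM and 500 nM) in 50 mM Tris pH 8.0, 300 mM NaCl, 1 mM TCEP. Glutathione donor and nickel acceptor beads; 1 h, 37 °C, dark.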
PINK1 modulator: A Quantitative High throughput Screen to Identify Chemical Modulators of PINK1 Expression; PINK1 immunofluorescence, high-content cytometry, 24 h; AID 624263, 2012; 0.2% of 410,000 active; Potency, µM (top dose mostly 76.6 µM), without a hit: at the top dose activation (PINK1 increase), most hits filed as activators; active = well fitted activation curve with a large enough effect; inconclusive = small, poorly fitted or top-dose-only effect; inactive = flat fitted curve, though single readings scatter; cell line not stated here;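 note: potency is the fitted concentration of half-maximal effect; % of control where 0% means no effect; nearly all actives have a fitted effect of over 65% in size; a mitochondrial uncoupler was the plate control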
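PINK1 protein, normally rapidly degraded, was detected by immunofluorescence after 24 hour compound treatment of a stable cell line. Titration data (5 concentrations) came from laser-scanning cytometry, with CCCP-treated wells as controls.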
CtBP-E1A inh: qHTS Assay for Inhibitors of the CtBP/E1A Interaction; 0.49% of 340,000 active; AlphaScreen GST-E1A/His-CtBP binding, 1536-well; hits give low values; control for the full effect not named in the record; activity change, % (no concentration beside the values); AID 651724, 2012; in the data active means activity change below about -65%; inconclusive means about -30% to -65%; inactive means above about -30%; note: % is set by controls: 0 for no effect and ±100 for the full control effect; compound concentration not given in the record
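Steps: dispense buffer (Tris pH 8.0, NaCl 300 mM, TCEP 1 mM, BSA, Tween 20); add 5X protein mix (GST-E1A, His-CtBP, 125 nM each); pin 23 nL compound; 2 h at 37 °C, dark; add 5X beads (50 ug/mL); 1 h; read.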
Numbers without * were called inactive; ? = inconclusive; nt = no result given; [ ] = another dose, or the depositor's remark.

SMILES | Sfp PPTase inh | TRPV1 potentiator | D2 potentiator | D2 agonist | Six1-Eya2 blk | PINK1 modulator | CtBP-E1A inh
N#Cc1cccnc1N1CCN(C(c2ccnc3ccccc23)c2nnnn2-c2ccc3c(c2)OCCO3)CC1 (stereo not drawn) | nt | nt | nt | nt | -8 | 1.3% | -5
COC(=O)c1ccccc1S(=O)(=O)N1CCC(NC(=O)c2ccccc2)CC1 | 1% | 5 | -5 | -3.2 | -10 | -0.1% | -2
CC(O)CNc1nc2sc3c(c2c(=O)n1CCc1ccccc1)CCCCC3 (stereo not drawn) | -23% | -13 | -9 | 3.2 | -14 | -1.8% | -12
O=[N+]([O-])c1ccc(S(=O)(=O)c2cccc(C(F)(F)F)c2)nc1 | nt | nt | -22 | 11 | -12 | -1.5% | 0
CC(CCc1ccccc1)NC(=O)C1CCN(S(=O)(=O)c2cnc[nH]2)CC1 (stereo not drawn) | 12% | -8 | -4 | -3.8 | 5 | -0.9% | 3
CN(CC(=O)Nc1ccc(Cl)cc1)CC(=O)N1CCc2ccccc21 | nt | nt | 4 | 0.7 | 5 | -0.1% | 13
COc1ccc(-c2cc3nc(NCCN4CCCC4)n(C)c(=O)c3s2)cc1OC | nt | nt | -16 | 4.8 | -7 | 2.2% | -16
Cc1ccc(CN2CCN(Cc3cnn(-c4ccc(F)cc4)c3)CC2CCO)o1 (stereo not drawn) | 9% | 4 | 6 | -2.7 | 0 | 1.2% | 1
COC(=O)c1[nH]c2c(c1C)C(=O)CCC2 | -2% | nt | 5 | -0.4 | -2 | nt | 8
CCOC(=O)c1c(-c2cccc([N+](=O)[O-])c2)cn2ccccc12 | 5% | 4 | -6 | 1.4 | -9 | 1.3% | -6
O=C(NCc1ccccc1)c1ccc(NC(=O)c2ccccc2F)cc1 | 14% | -11 | -11 | -0.5 | 5 | 10% | 1
CCc1nc2ccc(C(=O)N3CCN(C(=O)c4ccco4)CC3)cn2c1N(C)Cc1ccc(OC)cc1 | nt | nt | 3 | 3.0 | -1 | 3.0% | -1
CC1CCN(Cc2csc(N)n2)CC1 | 10% | ? | -14 | 0.0 | 6 | 1.9% | 0
COc1cccc(N2CCN(S(=O)(=O)c3ccc4c(c3)NC(=O)C(C)C(=O)N4)CC2)c1 (stereo not drawn) | 8% | 20 | -2 | -0.9 | -3 | -0.8% | 2
O=C(CCNS(=O)(=O)c1ccc(Cl)cc1)N1CCCC1 | 6% | -2 | 4 | 0.2 | -1 | -1.0% | -6
O=C1c2oc3ccc(F)cc3c(=O)c2C(c2cccc(O)c2)N1CCCN1CCOCC1 (stereo not drawn) | 7% | 22 | -5 | 1.9 | 6 | -0.7% | 0
COc1cc2oc(=O)cc(-c3cccc(-c4ccc(C(F)(F)F)cc4)c3)c2c(OC)c1OC | -9% | nt | -3 | -3.1 | 0 | 13% | 9
C=CCc1ccc(OCCOCCNCCCC)c(OC)c1 | ? | 29 | -33 | -2.3 | -5 | -1.9% | 0
CCOc1cccc(CN2CCC(n3nccc3NC(=O)C3CCCC3)CC2)c1 | 8% | 5 | -30 | -6.2 | -8 | 0.8% | 16
C=CCN(CC=C)S(=O)(=O)c1ccc(NC(=S)NC(=O)/C=C/c2cccc3ccccc23)cc1 | 25% | 4 | -7 | -2.3 | 11 | 6.7% | -4
O=C(COC(=O)c1ccco1)c1ccc2ccccc2c1 | -9% | 7 | -20 | -5.8 | 3 | -1.0% | 7
Cc1ccc(CN2CCN(Cc3ccc(-n4cccn4)cc3C)CC2CCO)cc1 (stereo not drawn) | -2% | 11 | -12 | 2.5 | -2 | -0.1% | 3
Cc1noc(NS(=O)(=O)c2ccc(N3Cc4ccccc4C3=O)cc2)c1C | 15% | 10 | -9 | 3.7 | -9 | nt | 3
COc1ccccc1NC(=O)CSc1nncs1 | nt | nt | -27 | -2.6 | -8 | 2.3% | 4
CCc1ccc(/C=C2/C(=O)N(c3ccccc3)C(=S)N2CC(=O)OC)s1 | 17% | 15 | -22 | -4.7 | 8 | 2.6% | 4
CCOC(=O)c1c(C)[nH]c(C(=O)COC(=O)CCNS(=O)(=O)c2ccc(NC(C)=O)cc2)c1C | nt | nt | 4 | 0.0 | -12 | 1.3% | nt
Cc1ccc(N(Cc2ccccc2F)S(C)(=O)=O)cc1C | 14% | -14 | -10 | -2.1 | 4 | 3.9%[38.3 µM] | 7
CSc1ncccc1C(=O)OCC(=O)NC1CC1 | nt | 1 | 2 | -5.5 | 5 | -1.9% | 2
N/C(=N\OC(=O)/C=C/c1ccccc1Cl)c1ccccn1 | -14% | -8 | 5 | -2.1 | -18 | 2.5% | ?
COc1cccc(OCCOc2c(OC)cccc2OC)c1 | 12% | -6 | -19 | -7.4 | 58 | -0.4% | 23
CC(NC(=O)c1ccc2c(c1)OCO2)C(c1cccs1)N1CCN(c2ccccc2)CC1 (stereo not drawn) | 8% | 7 | -1 | -1.8 | -3 | -2.5% | 4
O=S(=O)(c1ccc(Cl)nc1)N1CCOCC1 | nt | nt | -3 | -1.5 | 7 | 1.7% | -1
CC(C)(C)c1ccc(C(=O)Nc2sc3c(c2C(=O)O)CCC3)cc1 | -8% | 5 | 4 | 2.4 | -25 | -0.8% | 7
COc1ccc(NC(=O)CN2CCN(S(=O)(=O)c3ccc(Br)cc3)CC2)c(OC)c1 | 6% | -6 | -5 | 1.0 | -1 | 3.8% | 2
CNS(=O)(=O)c1ccc(NC(=O)c2ccoc2C)cc1 | 24% | -21 | -2 | 8.1 | 3 | -0.5% | nt
CCCN(CC(=O)Nc1ccccc1OC)C(=O)c1ccc(S(=O)(=O)Nc2ccccc2)cc1 | nt | 3 | -19 | -5.6 | -2 | 1.6% | 4
Cc1ccc(C)c(NC(=S)NNC(=O)c2cc3c(s2)CCC(C)C3)c1 (stereo not drawn) | 29% | 25 | -7 | -1.0 | 2 | 3.1% | -3
CC1(C)C(=O)Nc2ccccc2N1C(=O)COC(=O)c1ccc([N+](=O)[O-])o1 | nt | nt | ? | 11 | 0 | -0.9% | -4
O=C(O)CNC(=O)CC1S/C(=N/N=C2/NC(=O)CS2)NC1=O (stereo not drawn) | 32µM* | 1 | -5 | -0.6 | -67* | 5.6% | ?
COCCN1C(=O)N(c2cccc(C)c2)C(=O)C1CC(=O)Nc1ccc(OC)cc1 (stereo not drawn) | 15% | 11 | -5 | 1.0 | -1 | -0.6% | 5
O=C(N/N=C/c1cc(Cl)ccc1O)C(=O)Nc1ccccc1OC(F)(F)C(F)F | 10% | -1 | 21 | -0.8 | -27 | 4.4% | ?
COc1ccc(-c2cc3nc(C)cc(C)n3n2)cc1 | 3% | 1 | 9 | 0.6 | -3 | 2.5% | 0
COc1ccccc1N/N=C(\C#N)C(=N)N1CCOCC1 | 3% | -29 | -2 | -1.9 | 1 | -0.2% | 0
COc1ccc(S(=O)(=O)N2CCOCC2)cc1NC(=O)CN1C(=O)NC2(CCC(C)CC2)C1=O (stereo not drawn) | nt | nt | -16 | -1.2 | 9 | 2.1% | -3
CN(C)/C=C(\C#N)C(=O)c1cccnc1Oc1ccc(F)cc1F | 11% | nt | -1 | -1.2 | 4 | -5.6%[38.3 µM] | 4
Cc1ccc(C)c(-n2c(CNC(=O)c3ccco3)nnc2SCC(=O)Nc2nccs2)c1 | 9% | nt | -5 | -2.4 | -3 | -2.1% | -1
CCN(CC(=O)Nc1ccc(NC(C)=O)cc1)C(=O)/C=C/c1ccc2c(c1)OCO2 | nt | -1 | -19 | -3.6 | -5 | 3.0% | -5
COc1ccccc1CNC(=O)C1=CCN(S(=O)(=O)c2ccc(C)cc2)CC1 | 5% | -3 | -13 | -6.5 | 3 | -0.4% | nt

Part of the list above, with values under each structure.
Every second line gives: Sfp PPTase inh	TRPV1 potentiator	D2 potentiator	D2 agonist	Six1-Eya2 blk	PINK1 modulator	CtBP-E1A inh
- Cc1ccc(C)c(-n2c(CNC(=O)c3ccco3)nnc2SCC(=O)Nc2nccs2)c1
    9%	nt	-5	-2.4	-3	-2.1%	-1
- CCN(CC(=O)Nc1ccc(NC(C)=O)cc1)C(=O)/C=C/c1ccc2c(c1)OCO2
    nt	-1	-19	-3.6	-5	3.0%	-5
- COc1ccccc1CNC(=O)C1=CCN(S(=O)(=O)c2ccc(C)cc2)CC1
    5%	-3	-13	-6.5	3	-0.4%	nt

(listing goes on)
SMILES | Sfp PPTase inh | TRPV1 potentiator | D2 potentiator | D2 agonist | Six1-Eya2 blk | PINK1 modulator | CtBP-E1A inh
CCOC(=O)c1sc(=NC(=O)c2ccc(Br)cc2)n(C)c1C | 11% | 7 | -3 | 2.9 | 7 | -1.3% | 1
CCCn1c(N)c(NCCN2CCOCC2)c(=O)[nH]c1=O | -5% | 1 | 6 | 4.0 | -16 | 2.5% | 18
O=C(NCC1(N2CCOCC2)CCCCC1)c1ccc(Cl)c(S(=O)(=O)NCc2ccco2)c1 | 7% | 8 | 2 | 0.3 | -1 | 1.2% | -8
COc1ccc(-c2cc(C(=O)Nc3ccccc3F)on2)cc1 | -2% | 2 | -2 | -4.3 | -1 | 3.4% | 11
Cc1cc(=O)[nH]c(N/N=C/c2ccc(OC(=O)c3ccco3)cc2)n1 | 9% | -2 | -1 | -3.4 | -15 | -0.9% | 4
CCOc1ccc(/C(O)=C2/C(=O)C(=O)N(c3nc(C)c(C)s3)C2c2ccco2)cc1 (stereo not drawn) | -6% | 4 | -18 | -1.3 | -3 | -1.1% | -1
CCOC(=O)C1=C(C)N(C)C(=S)NC1c1ccccc1 (stereo not drawn) | 2% | 7 | -9 | 2.8 | 2 | 0.9% | 6
O=C(COC(=O)C1CC2C=CC1C2)NCCc1ccccc1 (stereo not drawn) | 4% | -24 | -6 | -0.6 | -2 | -2.3% | 0
